Bioassay records deposited in PubChem by National Center for Advancing Translational Sciences (NCATS).
Methyltransferases: Primary Screen for Target Class Profiling of Small Molecule Inhibitors of Methyltransferases; purified enzyme, MTase-Glo SAH luminescence; hits give low values; calls only at 40 µM; actives 3.9% (n = 25,000); AID 1745853, 2022; active = -50% or lower on at least one of six enzymes; inconclusive = the cases between; inactive = as a rule above -30% on all six;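 also: enzymes were COMT GAMT GNMT HNMT NNMT and PNMT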
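Each enzyme was assayed with SAM and its substrate. SAH formation detected by MTase-Glo luminescence; single-point 40 uM screen[…].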
Calls only; i = inactive; ? = inconclusive; + = active, no number. % is scaled to controls: 0 for no effect and ±100 for the full control effect.

SMILES	Methyltransferases
COc1ccc(-c2cc3n(n2)CC(C)(C(=O)NCc2ccccc2OC)N(c2ccc(Cl)cc2C)C3=O)cc1 (stereo unspecified)	i
CCCn1c(=O)c2ccc(C(=O)NC(C)C)cc2n2c(SCC(N)=O)nnc12	i
COc1ccc(C(=O)Cn2nc3n(CCC(C)C)c(=O)c4ccc(C(=O)NC(C)C)cc4n3c2=O)cc1	i
Fc1cccc(-c2nnn3c2nc(NCC2CCCO2)c2cc(Cl)ccc23)c1 (stereo unspecified)	i
COc1ccc([C@H](C)NC(=O)c2c(C)noc2-c2cccs2)cc1	i
CC1(C(=O)NC2CCCCCCC2)Cn2c(cc3occc32)C(=O)N1Cc1ccco1 (stereo unspecified)	i
CC1(C(=O)NC2CCCCCC2)Cn2c(cc3sccc32)C(=O)N1C1CCCc2ccccc21 (stereo unspecified)	i
O=C(CC1=CCCCC1)NC1CCc2n[nH]c(=O)n2CC1 (stereo unspecified)	i
CC/C=C\[C@H](O)[C@H](O)C1=C(C)C(=O)[C@]2(O1)C(=O)N[C@@](O)(C(=O)c1ccccc1)[C@@H]2O	i
CCN1CCN(c2nc3c(S(=O)(=O)c4ccc(C)cc4)nnn3c3ccccc23)CC1	?
COCc1nnc(C2CC3(CCN(C(=O)c4cccc(C)c4)CC3)CN2C)o1 (stereo unspecified)	i
O=C(CCCc1nnc2n3nc(-c4ccccc4)nc3c3ccccc3n12)N1CCN(c2ccc(F)cc2)CC1	i
O=S(=O)(c1cnc[nH]1)N1CCC(c2nc(CCOCC3CC3)no2)C1 (stereo unspecified)	i
CC(CNc1nc2c(-c3ccccc3)nnn2c2ccccc12)c1ccccc1 (stereo unspecified)	i
CCCCCCCCCCCCCCCC(=O)N[C@H](CN1CCOCC1)[C@H](O)c1ccccc1	?
COc1ccccc1CCNC(=O)c1cc2n(n1)CC(C)(C(=O)NCCC(C)C)N(C)C2=O (stereo unspecified)	i
C=C1CCC2C(C)(C)CCC[C@]2(C)[C@H]1C/C=C(\CO)C(=O)C(=O)O (stereo partly specified)	i
CCCn1c(=O)c2ccc(C(=O)NC3CCCCC3)cc2n2c(SCC(=O)NC(C)C)nnc12	i
CCCCC(=O)N1c2ccccc2NC2=C(C(=O)CCC2)C1c1ccccc1Cl (stereo unspecified)	i
COc1ccc(CNC(=O)C2(C)Cn3cnc(C(=O)Nc4ccc(C(C)C)cc4)c3C(=O)N2C2CC2)cc1 (stereo unspecified)	i
Fc1ccc(C(c2ccc(F)cc2)N2CCN(C/C=C/c3ccccc3)CC2)cc1	i
CCCn1c(=O)c2ccc(C(=O)NC3CCCC3)cc2n2c(=O)n(CC(=O)NCc3ccc(C)cc3)nc12	i
COc1ccccc1NC(=O)N1CCn2cccc2C1C (stereo unspecified)	i
CCOc1ccccc1CN1C(=O)c2cc3sccc3n2CC1(C)C(=O)NC1CCCCC1C (stereo unspecified)	i
CCCS(=O)(=O)N1CCCC(c2[nH]ccc2C(N)=O)C1 (stereo unspecified)	i

The final 2 compounds of the part above are carried over, then new ones follow:
SMILES	Methyltransferases
CCOc1ccccc1CN1C(=O)c2cc3sccc3n2CC1(C)C(=O)NC1CCCCC1C (stereo unspecified)	i
CCCS(=O)(=O)N1CCCC(c2[nH]ccc2C(N)=O)C1 (stereo unspecified)	i
CCCCCCOC(=O)/N=C(\N)c1ccc(NCc2nc3cc(C(=O)N(CCC(=O)OCC)c4ccccn4)ccc3n2C)cc1	?
Cc1cnc(CC2CCCN(Cc3ccc(F)cc3F)C2)n1Cc1ccccc1 (stereo unspecified)	i
CC12CCC3c4ccc(OC5OC(C(=O)O)C(O)C(O)C5O)cc4CCC3C1CCC2O (stereo unspecified)	i
CCC(C)NC(=O)c1ccc2c(=O)n(C)c3nnc(SCc4cccc(OC)c4)n3c2c1 (stereo unspecified)	i
COc1cccc(-c2cc(C3CCN(S(=O)(=O)c4cccc(OC)c4)CC3)[nH]n2)c1	i
CC(C)CCn1c(=O)c2ccccc2n2c(SCC(=O)NCc3ccc(Cl)cc3)nnc12	i
COCCCNC(=O)c1ccc(Cn2c(=O)c3ccccc3n(Cc3ccc(C(C)C)cc3)c2=O)cc1	i
O=[N+]([O-])c1ccc(Oc2ccc3c(c2)CCC(c2ccccc2)O3)nc1 (stereo unspecified)	i
Cc1cc2c(cc3n2CC(C)(C(=O)NC2CCCCCCC2)N(CCCc2ccccc2)C3=O)o1 (stereo unspecified)	i
COC(=O)C1=CO[C@@H](O[C@@H]2O[C@H](CO)[C@@H](O)[C@H](O)[C@H]2O)[C@@H]2C(C)CC(=O)[C@]12O (stereo partly specified)	i
CN(C)c1ccc(CNC(=O)CNC(=O)C2(C)Cn3c(cc4ccccc43)C(=O)N2C)cc1 (stereo unspecified)	i
CC1CCCCN1CCN1C(=O)c2ccc(-c3ccco3)n2CC1(C)C(=O)NC1CCCCCCC1 (stereo unspecified)	i
O=C(CC[C@@H]1CNC(=O)[C@@H]2C[C@H](NC(=O)C3CC3)CN12)NCc1cccs1	i
COc1ccc(OC)c(S(=O)(=O)N2CCC3(CC2)CN(c2ccccc2)C3=O)c1	i
CCCCCCOC(=O)NC(=N)c1ccc(NCc2nc3cc(C(=O)N(CCC(=O)OCC)c4ccccn4)ccc3n2C)cc1	?
O=C(Cn1nc2n(Cc3ccccc3)c(=O)c3ccccc3n2c1=O)NCc1ccccc1Cl	i
COc1ccc(C(=O)N2CCC(C3CCN(S(C)(=O)=O)CC3)C2)cc1OC (stereo unspecified)	i
C[C@@H]1C[C@@H](O)[C@@]23CO[C@]2(CO)C[C@@H](O)CC3[C@@]12CC(c1ccoc1)OC2=O (stereo partly specified)	i
CCCN1C(=O)c2cc(C(=O)NCc3ccc(OC)cc3OC)nn2CC1(C)C(=O)NC1CCCC1 (stereo unspecified)	i
Cc1ccc(Cl)cc1N1CCN(S(=O)(=O)c2cc3c(cc2C)n(C)c(=O)n3C)CC1	i
Cc1cn2c(-c3cn[nH]c3)cnc2c(Nc2ccc(C(=O)N3CCNCC3)cc2F)n1	i
CC(=O)Nc1c2n(c3ccccc13)CC(C)(C(=O)NC1CCCCCC1)N(Cc1ccccc1)C2=O (stereo unspecified)	i
COc1ccccc1CNC(=O)c1ccc2c(=O)nc3c(-c4ccc(Cl)cc4)n[nH]n3c2c1	i
O=C([C@@H]1CNC[C@H](C(=O)N2CCN(c3ccncc3)CC2)C1)N1CCOCC1	?
CC1(C(=O)NCc2ccccc2)Cn2c(cc3ccccc32)C(=O)N1Cc1cccc(Br)c1 (stereo unspecified)	i

Exported comma-delimited: part of the list above.
molecule,Methyltransferases
CC1CCCCN1CCN1C(=O)c2ccc(-c3ccco3)n2CC1(C)C(=O)NC1CCCCCCC1 (stereo unspecified),i
O=C(CC[C@@H]1CNC(=O)[C@@H]2C[C@H](NC(=O)C3CC3)CN12)NCc1cccs1,i
COc1ccc(OC)c(S(=O)(=O)N2CCC3(CC2)CN(c2ccccc2)C3=O)c1,i

Grouped by structure: the compounds so far with fluorine
SMILES	Methyltransferases
Fc1cccc(-c2nnn3c2nc(NCC2CCCO2)c2cc(Cl)ccc23)c1 (stereo unspecified)	i
O=C(CCCc1nnc2n3nc(-c4ccccc4)nc3c3ccccc3n12)N1CCN(c2ccc(F)cc2)CC1	i
Fc1ccc(C(c2ccc(F)cc2)N2CCN(C/C=C/c3ccccc3)CC2)cc1	i
Cc1cnc(CC2CCCN(Cc3ccc(F)cc3F)C2)n1Cc1ccccc1 (stereo unspecified)	i
Cc1cn2c(-c3cn[nH]c3)cnc2c(Nc2ccc(C(=O)N3CCNCC3)cc2F)n1	i

Going on with the list.
SMILES	Methyltransferases
CCOC(=O)c1ccc(N2C(=O)CSc3c(c4ccccc4n3C)C2C(=O)NCCCOC(C)C)cc1 (stereo unspecified)	i
CCOC(=O)CNC(=O)C1(C)Cn2nc(C(=O)OCC)cc2C(=O)N1Cc1cccc(C)c1 (stereo unspecified)	i
O=C(CCCc1nnc2n3nc(-c4ccccc4)nc3c3ccccc3n12)NCCN1CCCC1	+
CCc1ccc(CNC(=O)CNC(=O)C2(C)Cn3c(cc4ccccc43)C(=O)N2C)cc1 (stereo unspecified)	i
CC(CCc1ccccc1)N1C(=O)c2cc3sccc3n2CC1(C)C(=O)NC1CCCCC1 (stereo unspecified)	i
CC(=O)N[C@H](Cc1ccc(O)cc1)C(=O)N[C@H](CCCN=C(N)N)C(=O)N[C@H](Cc1ccccc1)C(N)=O	i
Cc1cc(C)cc(N2C(=O)c3ccccc3CC2(C)C(=O)NCc2ccccc2C)c1 (stereo unspecified)	i
O=c1cc(-c2cccnc2)oc2c(-c3cn[nH]c3)nccc12	i
CC(=O)NCc1nnc2n1C(C(=O)Nc1cccc(Cl)c1)CC2 (stereo unspecified)	i
COCCCNc1nc2c(S(=O)(=O)c3ccc(C)c(C)c3)nnn2c2ccc(Cl)cc12	i
COCCNC(=O)[C@H]1C[C@H](Oc2cccnc2)CN1C(=O)Nc1cccc(C)c1	i
CS(=O)(=O)c1ccc(CN2C[C@H](O)C[C@H]2c2nc(C3CC3)no2)cc1	i
CCOP(=O)(Cc1ccc(C(=O)Nc2ccc(Br)cc2C#N)cc1)OCC	i
CCOC(=O)c1cc2n(n1)CC(C)(C(=O)NC1CCCC1)N(c1cc(C)ccc1OC)C2=O (stereo unspecified)	i
Cc1ccc(O)cc1Nc1ccnc(Nc2cccc(C(N)=O)c2)n1	?
CCCSCCCN1C(=O)c2cc3occc3n2CC1(C)C(=O)NC1CCCCCCC1 (stereo unspecified)	i
COC(=O)CCC(=O)N1CCOC(CCCC(C)C)C1 (stereo unspecified)	i
Cn1nnc2cc(CNC(=O)c3cccnc3)ccc21	i
CCCNC(=O)N1CCc2nc(N3CCN(C)CC3)sc2C1	i
CO[C@@H]1[C@H](O)CCC2(CO2)[C@H]1[C@@]1(C)O[C@@H]1CC=C(C)C (stereo partly specified)	i
Cn1nc(C2CCCC2)cc1NC(=O)C1CC1	i
CC1(C(=O)NC2CCCCC2)Cn2nc(-c3cccs3)cc2C(=O)N1c1ccc(F)cc1 (stereo unspecified)	i
Cc1cccc(-c2n[nH]n3c2nc(=O)c2ccc(C(=O)N4CCN(c5cc(C)ccc5C)CC4)cc23)c1	i
C[C@@H]1O[C@@H](O[C@H]2[C@H](OC(=O)C34CCC(C)(C)CC3C3=CCC5C6(C)CC(O)C(O[C@@H]7O[C@H](CO)[C@@H](O)[C@H](O)[C@H]7O)C(C)(C(=O)O)C6CCC5(C)C3(CO)CC4)O[C@H](C)[C@H](O)[C@@H]2O)[C@H](O)[C@H](O)[C@H]1O[C@@H]1OC[C@@H](O)[C@H](O)[C@H]1O (stereo partly specified)	+
Cc1cc(C)c2c(N)c(C(=O)NCc3ccc(Cl)cc3)sc2n1	?

(next part)
SMILES	Methyltransferases
Cn1ccc(NC(=O)[C@@H]2C[C@@H](c3ccc(F)cc3)N(CCOc3ccccc3)C2)n1	i
Cc1n[nH]c(C)c1C(N)C(=O)NCc1ccccc1-n1ccnc1C (stereo unspecified)	i
CN1C(=O)c2cc(C(=O)NCCCc3ccccc3)nn2CC1(C)C(=O)NCc1ccc(F)cc1 (stereo unspecified)	i
CN(C)C(=O)C(=O)c1cn(C)c2cc(Cl)c(C(=O)N3CCC(Cc4ccc(F)cc4)CC3)cc12	i
COc1cc(/C=C(\C#N)C(N)=O)cc(CSc2nc3ccccc3s2)c1O	?
CC(C)NC(=O)c1ccc2c(=O)n(C(C)C)c3nn(Cc4c(F)cccc4Cl)c(=O)n3c2c1	i
CC1(C(=O)NC2CCCCCC2)Cn2c(ccc2-c2ccco2)C(=O)N1Cc1cccc(F)c1 (stereo unspecified)	i
Cn1c(=O)c2ccc(C(=O)NC3CCCCC3)cc2n2c(=O)n(CC(=O)Nc3ccc(Cl)cc3)nc12	i
CC(C)NC(=O)c1ccc2c(=O)n(Cc3ccccc3)c3nn(Cc4ccc(F)cc4Cl)c(=O)n3c2c1	i
C=CC(=O)Nc1cccc(Nc2nc(Nc3ccc(OCCOC)cc3)ncc2F)c1	+
CCOC(=O)c1cc2n(n1)CC(C)(C(=O)NCc1ccccc1)N(CCc1ccc(OCC)cc1)C2=O (stereo unspecified)	i
Nc1ccc(C(=O)Nc2cccc(-c3nc(N4CCOCC4)c4oc5ncccc5c4n3)c2)cn1	i
Cn1ccnc1C(=O)N1CCCCCNC(=O)[C@H]2C[C@H](C(=O)N3CCc4ccccc4C3)C[C@H]21	i
CC(C#N)C(C)O[C@@H]1O[C@H](CO)[C@@H](O)[C@H](O)[C@H]1O (stereo partly specified)	?
COc1ccccc1CNC(=O)C1c2c(n(C)c3ccccc23)SCC(=O)N1c1ccccc1OC (stereo unspecified)	i
O=C(O)c1ccnc2cc(C(OCC3CCC(F)(F)CC3)c3ccccc3Cl)[nH]c12 (stereo unspecified)	?
CCc1ccccc1NC(=O)Cn1nc2n(C)c(=O)c3ccc(C(=O)NC(C)CC)cc3n2c1=O (stereo unspecified)	i
COc1ccccc1C(=O)N1Cc2c(C(=O)NC3CC3)nn(C)c2C1	i
Cc1cccc(CN2C(=O)c3ccc(-c4ccco4)n3CC2(C)C(=O)NC2CCCCC2)c1 (stereo unspecified)	i
Cc1ccc(-c2cccc(CN3CCCC(c4nc5ccc(C)cc5c(=O)[nH]4)C3)c2)c(C)c1 (stereo unspecified)	i
C/C=C1/[C@H](O[C@@H]2O[C@H](CO)[C@@H](O)[C@H](O)[C@H]2O)OC=C2C(=O)O[C@@H]3C[C@@H](C(C)CO)[C@H](COC(=O)C[C@H]21)[C@H]3C (stereo partly specified)	i
C/C(=C\CCC1(C)C2CC3C(C2)C31C)C(=O)O (stereo unspecified)	i
Cc1ccccc1CN1CCn2c(nn(CC3COc4ccccc4O3)c2=O)C1=O (stereo unspecified)	i
Cc1cc(C(=O)N2Cc3cnn(C)c3Nc3ccccc32)ccc1CNC(=O)N1CCC[C@H]1C(=S)N1CCCN(C)CC1	i

An excerpt (hit frequency here may not be typical).
